Yeast UUG start = modulators of yeast start codon fidelity, primary screen, whole organism, S. cerevisiae, single point, plate reader; S. cerevisiae UUG-firefly luciferase reporter, luminescence/redox ratio; activity score, % at 18.7 µM; actives 0.13% (n = 350,000);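 active = replicate mean at a twofold rise or more, about +100% in these data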;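 also: firefly luciferase made from a UUG start codon reports start codon fidelity; reporter light over untreated wells divided by growth signal over untreated wells; some hits fall short of that in this replicate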
An asterisk follows results filed as active. A portion of the library, so the mix of outcomes need not match the whole.

Sample of the layout, 3 compounds:
Yeast UUG start,SMILES
32,Cc1cc(C(=O)Nc2ccc3c(c2)C(=O)N(C)[C@H]2CC[C@H](CC(=O)Nc4ccc(Cl)cc4)O[C@@H]2CO3)no1
-16,CNC[C@@H]1Oc2c(NS(=O)(=O)c3ccc(C)cc3)cccc2C(=O)N([C@H](C)CO)C[C@H]1C
10,C[C@H]1CN([C@@H](C)CO)C(=O)c2cc(NC(=O)CCN3CCOCC3)ccc2O[C@@H]1CN(C)C(=O)NC1CCCCC1

Results, repeating the preview:
Yeast UUG start,SMILES
32,Cc1cc(C(=O)Nc2ccc3c(c2)C(=O)N(C)[C@H]2CC[C@H](CC(=O)Nc4ccc(Cl)cc4)O[C@@H]2CO3)no1
-16,CNC[C@@H]1Oc2c(NS(=O)(=O)c3ccc(C)cc3)cccc2C(=O)N([C@H](C)CO)C[C@H]1C
10,C[C@H]1CN([C@@H](C)CO)C(=O)c2cc(NC(=O)CCN3CCOCC3)ccc2O[C@@H]1CN(C)C(=O)NC1CCCCC1
3,CO[C@@H]1CN(C)C(=O)c2ccc(NC(=O)Nc3cccc(F)c3)cc2OC[C@@H](C)N(C(=O)Nc2c(C)noc2C)C[C@H]1C
11,COc1ccccc1NC(=O)N1CCCCN2[C@H](C1)[C@H](c1ccc(-c3cccc(C)c3)cc1)[C@@H]2CO
18,C[C@H](CO)N1C[C@H](C)[C@H](CN(C)S(=O)(=O)c2ccc(-c3ccccc3)cc2)OCc2cnnn2CCCC1=O
-10,O=C(Nc1ccccc1)[C@@H]1[C@@H](CO)[C@@H]2Cn3c(cccc3=O)[C@H]1N2C(=O)c1ccccc1
3,Cc1ccc(S(=O)(=O)N2C[C@H](O)COC[C@H]3O[C@H](CC(=O)NCCN4CCCCC4)CC[C@@H]32)cc1
0,CC(C)NC(=O)Nc1cccc2c1O[C@H](CN(C)Cc1ccc(C(F)(F)F)cc1)[C@H](C)CN([C@H](C)CO)C2=O
2,CO[C@H]1CN(C)C(=O)c2cc(NS(=O)(=O)c3cn(C)cn3)ccc2OC[C@@H](C)N(Cc2cccc(F)c2)C[C@H]1C
6,C[C@@H]1CN([C@H](C)CO)C(=O)Cc2cc(NC(=O)c3ccncc3)ccc2O[C@@H]1CN(C)S(=O)(=O)c1ccccc1
3,COc1cccc(S(=O)(=O)N2CCCCN3[C@H](CO)[C@H](c4ccc(C#CC5CC5)cc4)[C@H]3C2)c1
3,Cc1ccccc1-c1ccc([C@H]2[C@@H](CO)N3CCCCN(S(=O)(=O)c4cn(C)cn4)C[C@@H]23)cc1
-7,COCCNC(=O)C[C@H]1CC[C@@H]2[C@@H](COc3ccc(NC(=O)c4cnccn4)cc3C(=O)N2C)O1
7,COCC(=O)N1[C@H](CO)[C@@H](c2ccccc2)[C@H]1CN(C)C(=O)c1cccnc1
1,CO[C@@H]1CN(C)C(=O)c2ccc(NC(=O)C3CC3)cc2OC[C@H](C)N(C(=O)NC(C)C)C[C@H]1C
15,Cc1ccc(S(=O)(=O)N2C[C@H](O)COC[C@@H]3O[C@H](CC(=O)NCc4ccc(Cl)c(Cl)c4)CC[C@H]32)cc1
-4,CO[C@H]1CN(C)C(=O)c2ccc(NC(=O)C3CC3)cc2OC[C@@H](C)N(Cc2cccnc2)C[C@H]1C
3,CNC(=O)C[C@H]1CC[C@H]2[C@@H](COC[C@@H](O)CN2Cc2ccncc2)O1
26,CN1CCCCN2[C@@H](CO)[C@@H](c3ccc(C#CC4(O)CCCC4)cc3)[C@@H]2C1
-13,C[C@@H]1CN([C@@H](C)CO)C(=O)c2cc(NC(=O)CCC(F)(F)F)ccc2O[C@H]1CN(C)C
4,CCC(=O)Nc1ccc2c(c1)C(=O)N(C)C[C@@H](OC)[C@@H](C)CN(Cc1cccc(F)c1)[C@H](C)CO2
4,CN1c2ccc(-c3cccc(C#N)c3)cc2[C@@H]2[C@@H](CCN2C(=O)CC2CC2)[C@@H]1CO
8,COc1ccc(S(=O)(=O)N(C)C[C@@H]2Oc3ccc(NC(=O)CCN4CCOCC4)cc3C(=O)N([C@@H](C)CO)C[C@H]2C)cc1
-12,COCC(=O)N1CCCCN2[C@H](CO)[C@@H](c3ccc(C#Cc4ccccc4)cc3)[C@@H]2C1

Ordered by the number under Yeast UUG start (rising): 7 from the list above.
Yeast UUG start,SMILES
-10,O=C(Nc1ccccc1)[C@@H]1[C@@H](CO)[C@@H]2Cn3c(cccc3=O)[C@H]1N2C(=O)c1ccccc1
0,CC(C)NC(=O)Nc1cccc2c1O[C@H](CN(C)Cc1ccc(C(F)(F)F)cc1)[C@H](C)CN([C@H](C)CO)C2=O
3,CNC(=O)C[C@H]1CC[C@H]2[C@@H](COC[C@@H](O)CN2Cc2ccncc2)O1
4,CN1c2ccc(-c3cccc(C#N)c3)cc2[C@@H]2[C@@H](CCN2C(=O)CC2CC2)[C@@H]1CO
8,COc1ccc(S(=O)(=O)N(C)C[C@@H]2Oc3ccc(NC(=O)CCN4CCOCC4)cc3C(=O)N([C@@H](C)CO)C[C@H]2C)cc1
18,C[C@H](CO)N1C[C@H](C)[C@H](CN(C)S(=O)(=O)c2ccc(-c3ccccc3)cc2)OCc2cnnn2CCCC1=O
32,Cc1cc(C(=O)Nc2ccc3c(c2)C(=O)N(C)[C@H]2CC[C@H](CC(=O)Nc4ccc(Cl)cc4)O[C@@H]2CO3)no1

Additional records
Yeast UUG start,SMILES
-6,Cc1ccccc1S(=O)(=O)N1CCCCN2[C@@H](CO)[C@H](c3ccc(-c4cccnc4)cc3)[C@@H]2C1
0,C/C=C/c1ccc([C@@H]2[C@@H](CN(C)S(C)(=O)=O)N(C(=O)CC)[C@H]2CO)cc1
8,C/C=C/c1ccc([C@H]2[C@@H](CNC(C)C)N(Cc3cccnc3)[C@H]2CO)cc1
6,COc1ccc(NC(=O)N(C)C[C@@H]2OCc3ccccc3-c3ccccc3C(=O)N([C@@H](C)CO)C[C@@H]2C)cc1
-7,CN1CCCCN2[C@H](CO)[C@@H](c3ccc(-c4ccc(F)cc4)cc3)[C@H]2C1
4,COc1ccc(S(=O)(=O)N(C)C[C@H]2OCc3ccccc3-c3c(n(C)c4ccccc34)C(=O)N([C@H](C)CO)C[C@H]2C)cc1
11,O=C(C1CCCC1)N1[C@@H]2CN(S(=O)(=O)c3ccc(F)cc3)c3ccccc3[C@@H]2[C@@H]1CO
11,COc1cccc(-c2ccc3n(c2=O)C[C@H]2[C@H](CO)[C@@H](C(=O)N(C)C)N(C(=O)C4CCC4)[C@@H]32)c1
-11,COc1ccc(NC(=O)N2CCCCN3[C@H](CO)[C@@H](c4ccc(-c5ccccc5C)cc4)[C@@H]3C2)cc1
7,O=S(=O)(c1ccccc1)N1CCCCN2[C@@H](CO)[C@@H](c3ccc(C#Cc4cccnc4)cc3)[C@@H]2C1
-1,CN1c2ccc(Br)cc2[C@H]2[C@H](CCN2C(=O)Nc2ccc(F)cc2)[C@H]1CO
-18,CCCC#Cc1ccc([C@@H]2[C@@H](CO)N3CCCCN(Cc4cccnc4)C[C@H]23)cc1
-7,CCC(=O)N1C[C@@H](C)[C@@H](OC)CN(C)C(=O)c2cc(NC(=O)COC)ccc2OC[C@@H]1C
3,CC(=O)N1CC[C@@H]2[C@H]1c1cc(-c3ccccc3)ccc1N(C)[C@H]2CO
3,COCC(=O)Nc1ccc2c(c1)OC[C@H](C)N(C(=O)c1ccccc1F)C[C@H](C)[C@H](OC)CN(C)C2=O
-8,COc1cccc(-c2ccc3c(c2)[C@H]2[C@H](CCN2Cc2ccccc2OC)[C@H](CO)N3)c1
-15,Cc1nn(C)cc1NC(=O)C[C@@H]1CC[C@H]2[C@H](COc3ccc(NC(=O)Nc4cccc(Cl)c4)cc3C(=O)N2C)O1
5,CO[C@H]1CN(C)C(=O)c2ccc(NS(=O)(=O)c3ccc(C)cc3)cc2OC[C@H](C)N(Cc2nccs2)C[C@H]1C
2,CO[C@@H]1CN(C)C(=O)c2cc(NC(=O)C3CC3)ccc2OC[C@@H](C)N(S(=O)(=O)c2ccc(Cl)cc2)C[C@H]1C
-1,C[C@H]1CN([C@@H](C)CO)C(=O)c2c(c3ccccc3n2C)-c2ccccc2CO[C@H]1CN(C)C(=O)c1ccc(F)cc1
49,Cc1noc(C)c1S(=O)(=O)N(C)C[C@@H]1Oc2c(NC(=O)c3ccc(-c4nccs4)cc3)cccc2C(=O)N([C@@H](C)CO)C[C@H]1C
-7,C[C@H]1CN([C@@H](C)CO)C(=O)c2cc(NC(=O)Nc3ccccc3)ccc2O[C@@H]1CN(C)S(=O)(=O)c1ccc(Cl)cc1
-16,CCC(=O)N1[C@H](CO)[C@@H](c2ccccc2)[C@H]1CNC(=O)CN1CCOCC1
12,Cn1cnc(S(=O)(=O)N2C[C@@H](O)COC[C@H]3O[C@H](CC(=O)NCc4cc(F)cc(F)c4)CC[C@@H]32)c1
3,C[C@H]1CN([C@@H](C)CO)C(=O)c2cccc(NC(=O)NC3CCCCC3)c2O[C@@H]1CN(C)S(=O)(=O)c1cn(C)cn1

Additional results follow:
Yeast UUG start,SMILES
-6,C[C@H]1CN([C@@H](C)CO)C(=O)c2cccc(NS(=O)(=O)c3cccs3)c2O[C@H]1CN(C)C(=O)Nc1ccc(C(F)(F)F)cc1
6,Cc1ccc(S(=O)(=O)Nc2ccc3c(c2)C(=O)N([C@H](C)CO)C[C@@H](C)[C@@H](CN(C)C(=O)Nc2ccccc2)O3)cc1
6,CN(C)C(=O)c1ccc(-c2ccc([C@H]3[C@@H](CO)N4CCCCN(C(=O)C5CCC5)C[C@H]34)cc2)cc1
-14,COCCNC(=O)C[C@@H]1CC[C@H]2[C@H](COc3ccc(NC(=O)c4cc(C)on4)cc3C(=O)N2C)O1
-23,COc1ccc(C#Cc2ccc3c(c2)[C@H]2[C@H](CCN2C(=O)C2CC2)[C@@H](CO)N3)cc1
-3,COc1cccc(NC(=O)N2CC[C@@H]3[C@@H](CO)N(C)c4ccc(-c5ccccc5)cc4[C@@H]32)c1
-9,O=C([C@H]1[C@H](CO)[C@H]2Cn3c(ccc(C4=CCCCC4)c3=O)[C@H]2N1Cc1nccs1)N1CCOCC1
6,CCCNC(=O)Nc1ccc2c(c1)OC[C@H](C)N(Cc1ccccc1)C[C@@H](C)[C@H](OC)CN(C)C2=O
-2,CN1c2ccc(-c3ccccc3)cc2[C@@H]2[C@@H](CCN2C(=O)Nc2ccccc2F)[C@@H]1CO
1,C[C@@H]1CN([C@H](C)CO)C(=O)Cc2cc(N(C)C)ccc2O[C@H]1CN(C)C(=O)Nc1ccc(F)cc1
-1,CC(C)NC(=O)N1CCCCN2[C@H](CO)[C@@H](c3ccc(C#Cc4ccccc4F)cc3)[C@H]2C1
-2,CCCC(=O)Nc1ccc2c(c1)OC[C@H](C)N(Cc1nccs1)C[C@@H](C)[C@@H](OC)CN(C)C2=O
6,CCC(=O)N1CC[C@H]2[C@@H]1c1cc(C#Cc3ccccc3OC)ccc1N(C)[C@H]2CO
4,CO[C@@H]1CN(C)C(=O)c2ccc(NC(C)=O)cc2OC[C@@H](C)N(C(=O)C2CC2)C[C@H]1C
21,Cc1ccccc1S(=O)(=O)N1C[C@@H]2[C@H](c3ccccc31)[C@H](CO)N2C(=O)CC1CC1
7,CC(C)NC(=O)Nc1ccc2c(c1)CC(=O)N([C@H](C)CO)C[C@@H](C)[C@@H](CN(C)Cc1ccncc1)O2
-8,COc1ccc(S(=O)(=O)N(C)C[C@H]2Oc3ccc(NS(=O)(=O)c4ccc(Cl)cc4)cc3C(=O)N([C@H](C)CO)C[C@H]2C)cc1
-12,C[C@H]1CN([C@@H](C)CO)C(=O)Cc2cc(NS(=O)(=O)c3ccc(Cl)cc3)ccc2O[C@@H]1CN(C)CC1CC1
17,C/C=C/c1ccc([C@H]2[C@H]3CN(C(=O)Nc4ccc(OC)cc4)CCCCN3[C@H]2CO)cc1
3,C/C=C/c1ccc([C@H]2[C@H](CO)N(C(C)=O)[C@H]2CN(CC)C(=O)CN(C)C)cc1
-2,CCC(=O)N(CC(C)C)C[C@@H]1[C@@H](c2ccccc2)[C@H](CO)N1C(=O)C1CCC1
-3,COc1ccccc1-c1ccc([C@@H]2[C@H]3CN(C(=O)c4ccncc4)CCCCN3[C@H]2CO)cc1
1,CO[C@H]1CN(C)C(=O)c2ccc(NC(=O)c3nc4ccccc4s3)cc2OC[C@H](C)N(Cc2ccncc2)C[C@@H]1C
12,COc1ccccc1NC(=O)N1C[C@@H]2[C@H](c3ccccc31)[C@@H](CO)N2CC1CCCC1
16,C[C@H](O)C#Cc1ccc([C@@H]2[C@@H](CO)N3CCCCN(S(=O)(=O)Cc4ccccc4)C[C@@H]23)cc1

2 of the compounds above, as tab-separated lines.
Compound	Yeast UUG start
COCCNC(=O)C[C@@H]1CC[C@H]2[C@H](COc3ccc(NC(=O)c4cc(C)on4)cc3C(=O)N2C)O1	-14
C/C=C/c1ccc([C@H]2[C@H]3CN(C(=O)Nc4ccc(OC)cc4)CCCCN3[C@H]2CO)cc1	17

Continued:
Yeast UUG start,SMILES
-9,C[C@@H]1CN([C@@H](C)CO)C(=O)c2cc(NC(=O)Nc3ccccc3)ccc2O[C@H]1CN(C)Cc1ccc2c(c1)OCO2
35,Cc1ccc(S(=O)(=O)N2C[C@H](O)COC[C@@H]3O[C@@H](CC(=O)NCC4CCCCC4)CC[C@H]32)cc1
-13,O=C(C[C@H]1CC[C@@H]2[C@H](COC[C@H](O)CN2C(=O)c2ccncc2)O1)NCc1cc(F)cc(F)c1
12,COCC(=O)Nc1ccc2c(c1)OC[C@@H](C)N(Cc1ccccc1)C[C@@H](C)[C@@H](OC)CN(C)C2=O
-6,C[C@@H]1CN([C@H](C)CO)C(=O)Cc2cc(NC(=O)Nc3ccccc3)ccc2O[C@H]1CN(C)C(=O)NC1CCCCC1
2,C[C@@H]1CN([C@@H](C)CO)C(=O)c2cccc(NC(=O)c3nc4ccccc4s3)c2O[C@H]1CN(C)C(=O)Nc1ccc2c(c1)OCO2
3,O=C(NC1CCCC1)N1CCCCN2[C@H](C1)[C@H](c1ccc(/C=C/c3ccccc3)cc1)[C@@H]2CO
-9,CCCNC(=O)N1C[C@@H]2[C@H](c3ccccc31)[C@H](CO)N2Cc1cccc(OC)c1
4,Cc1noc(C)c1S(=O)(=O)Nc1ccc2c(c1)C(=O)N([C@H](C)CO)C[C@H](C)[C@@H](CN(C)Cc1ccc(Oc3ccccc3)cc1)O2
23,COC(=O)[C@H]1[C@H](CO)[C@H]2Cn3c(cccc3=O)[C@H]2N1C(=O)C1CCCCC1
